# High-throughput results: PubChem BioAssay, several laboratories
# Insulin prom inh: TRM-6 insulin promoter activity inhibition | inhibition, % at 2 µM | TRM-6 cells (human fetal islet line), insulin promoter-eGFP reporter, imaging; reporter expression induced with tamoxifen | 130,000 compounds, 0.9% hits | AID 1273;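 active means inhibition above the mean plus 3 SD, with well images judged a real hit on visual review, cut at about 60% in these data, passing the limit was not always enough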
# GALR2 ag: GALR2 (human) receptor agonism; O43603; GALR2-expressing cells, agonist activation read-out; activation, %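 (tested at 5 µM)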; 140,000 compounds, 0.48% hits;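 active means above mean plus 3 SD of all compounds, about 5% in these data, not always enough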;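 further: 0% = vehicle buffer wells and 100% = reference agonist at full effect; tested in CHO reporter cells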
# PKD1 inh: blocks activity of human protein kinase D1; 200,000 compounds, 0.056% hits; inhibition, %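 (about 10 µM by stock and volumes)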; PKD1 kinase fluorescence polarization assay; Q15139;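 active means inhibition of 50% or more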;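 further: controls were vehicle for no effect and a reference inhibitor for full effect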
# Target sequence (Q15139 whole entry, looked up): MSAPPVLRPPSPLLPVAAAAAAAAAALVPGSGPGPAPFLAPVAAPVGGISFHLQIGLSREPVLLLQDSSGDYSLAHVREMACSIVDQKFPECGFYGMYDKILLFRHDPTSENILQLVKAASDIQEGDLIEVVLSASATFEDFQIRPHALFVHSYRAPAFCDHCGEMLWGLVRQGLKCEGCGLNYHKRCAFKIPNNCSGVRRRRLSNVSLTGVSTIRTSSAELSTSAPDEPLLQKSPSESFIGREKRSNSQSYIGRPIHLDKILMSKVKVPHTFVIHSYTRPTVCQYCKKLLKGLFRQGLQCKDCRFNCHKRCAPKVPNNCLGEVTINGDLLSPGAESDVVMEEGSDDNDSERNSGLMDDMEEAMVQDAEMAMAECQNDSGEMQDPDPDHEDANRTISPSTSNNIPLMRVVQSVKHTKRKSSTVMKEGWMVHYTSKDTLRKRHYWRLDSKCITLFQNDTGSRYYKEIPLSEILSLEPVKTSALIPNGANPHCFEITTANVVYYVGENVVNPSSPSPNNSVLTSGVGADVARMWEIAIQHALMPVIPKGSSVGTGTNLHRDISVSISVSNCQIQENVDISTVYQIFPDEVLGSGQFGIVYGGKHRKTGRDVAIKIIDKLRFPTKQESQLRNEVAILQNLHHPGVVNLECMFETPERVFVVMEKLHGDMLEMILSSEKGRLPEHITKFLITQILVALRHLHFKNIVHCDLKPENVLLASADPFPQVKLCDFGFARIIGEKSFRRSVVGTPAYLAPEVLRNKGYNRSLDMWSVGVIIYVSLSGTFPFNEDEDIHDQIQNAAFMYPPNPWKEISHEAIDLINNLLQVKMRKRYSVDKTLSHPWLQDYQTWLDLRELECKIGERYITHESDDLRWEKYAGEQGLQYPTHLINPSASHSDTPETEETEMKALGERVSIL
# RGS16-Gao: regulators of human RGS16-Galphao interaction. O15492+P09471. AID 1441. 220,000 compounds, 0.38% hits. binding response (% of control), % at 10 µM. bead-based flow cytometry RGS16-Galphao binding, fluorescence; actives lie on both sides;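 active means below 25% or above 175%, edge rows of some plates excepted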;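 further: Galphao activated by GDP with aluminum fluoride before binding; 100% = wells without compound and 0% = beads without RGS; some results beyond the cut were filed as inactive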
# HSV augment: HSV replication enhancement; HSV replication augmentation in cells, fold increase; maximum fold increase; 220,000 compounds, 0.005% hits; AID 1956;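 active means peak rise of 1.5-fold or more in the series; tested in PC3 cells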;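 further: first round at 10 µM; read as green reporter fluorescence; hits show the peak of a series up to 25 µM; 1 = signal of infected wells without compound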
# Insulin prom inh cell count: second read-out of Insulin prom inh, no call of its own (marks repeat the call); normalized cell count, %; measured here: cell count, toxicity; reference of the scale not given here;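 cells exposed to compound for 48 h; stained nuclei by imaging scaled within each plate; lower means fewer cells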
# HSV augment primary fold: recorded beside HSV augment, whose call it bears; fold increase; compound at 10 µM; measured here: primary screen fold increase 10 uM; tested in PC3 cells;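 GFP signal in the first replicate; 1 = infected wells without compound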
# Numbers without * were called inactive; i = inactive; nt = not tested or not shown.
SMILES,Insulin prom inh,Insulin prom inh cell count,GALR2 ag,PKD1 inh,RGS16-Gao,HSV augment,HSV augment primary fold
Cc1c(C(c2cccc([N+](=O)[O-])c2O)c2c(C)n(C)n(-c3ccccc3)c2=O)c(=O)n(-c2ccccc2)n1C,-29,94,-2.3,-2,74,i,1.1
CCOC(=O)c1c(NC(=O)Cc2cccs2)sc2c1CCCC2,10,101,0.7,31,105,i,0.97
Cc1nc(CNS(=O)(=O)c2cccs2)cs1,-9,75,nt,-2,113,i,1.2
COc1ccc(N(CC(=O)NCc2ccco2)S(C)(=O)=O)cc1,21,62,0.6,-5,99,i,0.92
O=C(CNC(=O)c1ccccc1)Nc1ccsc1C(=O)O,nt,nt,nt,-5,99,i,0.98
COc1ccc(C(=O)OCC(=O)NC(C)(C)C)cc1[N+](=O)[O-],7,102,0.3,-16,105,i,0.97
COc1cc(CC(=O)Nc2sccc2C(N)=O)cc(OC)c1OC,-12,103,0.2,6,111,i,1
COc1ccc(CNC(=O)C2CCCN2S(=O)(=O)c2ccc(F)cc2)cc1 (stereo not given),nt,nt,nt,-2,102,i,0.95
O=C(CCC(=O)N(CC(=O)NC1CCCCC1)c1ccc2c(c1)OCO2)Nc1ccccn1,nt,nt,-1.3,6,98,i,0.9
COc1ccc(/C(O)=C2\C(=O)C(=O)N(CCN3CCOCC3)C2c2ccccc2OC)cc1 (stereo not given),nt,nt,-0.8,-4,93,i,1
CCOC1=C/C(=C/c2c(N)n3oc(C)cc3nc2=O)C=CC1=O,nt,nt,nt,2,95,i,1.2
CC(=O)N1CCN(c2ccc(NC(=O)c3ccc(C)cc3)cc2)CC1,-8,66,-0.4,-1,110,i,0.78
CN(C)CC1CCCCC1OC(=O)c1ccc(Br)cc1 (stereo not given),-27,160,nt,3,100,i,0.98
COc1cccc(Nc2nc(N)nc(C(F)(F)F)n2)c1,nt,nt,1.9,0,100,i,0.93
O=C(COC(=O)c1ccc2c(c1)OCO2)Nc1ncc(Cl)cc1Cl,10,110,0.8,-5,106,i,1.1
O=[N+]([O-])c1ccc(/C=N\N2CCN(c3ccc(Cl)cc3)CC2)cc1,-100,88,-1.3,-1,105,i,0.9
CCS(=O)(=O)N1N=C(c2cccs2)CC1c1cc2cc(C)ccc2nc1Cl (stereo not given),nt,nt,nt,nt,97,i,0.93
CC(C)(C)c1ccc(C(=O)O)c(C(=O)c2ccc(C(=O)O)cc2)c1,nt,nt,nt,nt,101,i,1
Cc1cc(N2CCOCC2)nc(NCc2ccccc2)n1,-14,111,-0.8,1,231,i,0.88
O=C(O)Cc1ccc(-c2ccccc2)cc1,18,94,0.1,-9,99,nt,nt
COc1ccc(OC)c(NC(=O)C2CCN(S(=O)(=O)c3cccs3)CC2)c1,14,93,-0.6,13,98,i,1
Cc1ccccc1-n1nnnc1SCC(N)=O,nt,nt,-2.2,-5,101,i,1
CCN(c1ccccc1)S(=O)(=O)c1ccc(OCC(=O)Nc2cc(C)on2)cc1,-28,145,0.2,-10,110,i,0.91
CCOC(=O)C1=C(C)N=C2SC(C)C(=O)N2C1c1ccc(OC(C)=O)c(OCC)c1 (stereo not given),-86,86,-1.3,-9,104,nt,nt
O=C(NCCc1ccncc1)Nc1ccc(F)cc1,nt,nt,nt,nt,107,i,0.77

# (list continues)
SMILES,Insulin prom inh,Insulin prom inh cell count,GALR2 ag,PKD1 inh,RGS16-Gao,HSV augment,HSV augment primary fold
C=CCc1ccc(OCCOCCOc2ccc(C)cc2[N+](=O)[O-])c(OC)c1,-23,72,-4.1,-8,93,i,0.92
CCOC(=O)CSC1=C(C#N)C(c2ccc(OC)cc2)C2=C(CC(C)(C)CC2=O)N1 (stereo not given),42,71,0.3,-1,90,i,0.7
COc1ccccc1N1CCN(C(=O)CSc2nc3ccccc3[nH]2)CC1,-47,65,-1.7,-1,87,i,0.92
O=C(CSc1nnnn1-c1ccc(Cl)cc1)NNC(=O)c1ccc([N+](=O)[O-])cc1,-13,130,-0.1,-6,101,i,0.87
O=C(Nc1ccccc1)Nc1ccc(Br)cc1F,nt,nt,-1.5,6,101,i,1
CCOc1ccc(Cl)cc1/C=N/O,-36,126,-0.2,-9,103,i,1.2
CC(C)c1ccc(NCCC(=O)c2cccs2)cc1,9,170,-0.4,2,98,i,0.91
O=C(COC(=O)c1ccncc1)c1ccc(Br)cc1,nt,nt,nt,1,96,i,1
CCC(C)(C)NC(=O)CN(C(=O)CCC(=O)Nc1cc(C)ccn1)c1ccc2c(c1)OCCO2,nt,nt,nt,3,102,i,1
COC(=O)c1cc(OC)c(OC)cc1NC(=S)Nc1cc(Cl)ccc1OC,19,152,-0.4,3,103,i,0.99
CSc1nnc(-c2sccc2OCc2ccc(C)cc2)n1C,nt,nt,-1.6,-3,99,i,0.83
CC(=O)Nc1ccc(/C(C)=N/NC(=O)CN(c2ccccc2Br)S(C)(=O)=O)cc1,21,121,-0.4,0,104,i,1.1
COc1cccc(CNC(=O)C2CCC(CNc3nc(=S)[nH]c4ccccc34)CC2)c1 (stereo not given),-29,120,nt,-3,107,i,0.66
Cc1cc(F)ccc1S(=O)(=O)Nc1ncnc2sccc12,-11,98,nt,0,106,i,0.94
CN(Cc1ccccn1)Cc1cn(Cc2ccccc2)nc1-c1ccc2c(c1)OCO2,nt,nt,nt,3,103,i,1
O=C(c1cc2n(n1)C(C(F)(F)F)CC(c1ccco1)N2)N1CCN(c2ccccn2)CC1 (stereo not given),-35,100,-0.2,-15,nt,i,0.96
O=C(Nc1ccc(C(=O)N2CCCC2)cc1)c1ccccc1F,-438,54,-1.9,0,93,i,0.94
COc1ccc(C(=O)NC(=S)Nc2ccc(NC(=O)c3ccco3)cc2)cc1[N+](=O)[O-],0,159,3.4,-4,99,i,0.88
Cc1cc(C(=O)Cn2cnc3cc([N+](=O)[O-])ccc3c2=O)c(C)n1CC1CCCO1 (stereo not given),17,131,nt,-5,98,i,0.97
COc1ccc(OCc2cccc(C(=O)N3CCCC3)c2)cc1,-25,184,-0.9,-9,99,i,0.94
COc1ccc(C(CNC(=O)c2cncc(Br)c2)N(C)C)cc1 (stereo not given),nt,nt,nt,-3,99,i,0.89
O=C(NCC(=O)N(Cc1ccccc1)C(C(=O)NC1CCCCC1)c1ccco1)c1ccco1 (stereo not given),6,127,0.1,-7,29,i,0.96
O=C(Nc1cccc2ccccc12)c1onc2c1CCCC2,-43,78,-1.1,-3,104,i,0.97
CCN(c1ccccc1)S(=O)(=O)c1ccc(Cl)c(NC(=O)COC(=O)c2cc(O)c3ccccc3c2O)c1,nt,nt,nt,nt,100,i,0.88
COc1ccc(N(CC(=O)NCCSc2ccccn2)S(C)(=O)=O)cc1Cl,nt,nt,-1.7,-10,100,i,0.88

# Laid out differently: results already given.
canonical_smiles | Insulin prom inh | Insulin prom inh cell count | GALR2 ag | PKD1 inh | RGS16-Gao | HSV augment | HSV augment primary fold
CC(=O)Nc1ccc(/C(C)=N/NC(=O)CN(c2ccccc2Br)S(C)(=O)=O)cc1 | 21 | 121 | -0.4 | 0 | 104 | i | 1.1
O=C(Nc1ccccc1)Nc1ccc(Br)cc1F | nt | nt | -1.5 | 6 | 101 | i | 1
CCN(c1ccccc1)S(=O)(=O)c1ccc(Cl)c(NC(=O)COC(=O)c2cc(O)c3ccccc3c2O)c1 | nt | nt | nt | nt | 100 | i | 0.88
Cc1cc(F)ccc1S(=O)(=O)Nc1ncnc2sccc12 | -11 | 98 | nt | 0 | 106 | i | 0.94
COc1ccccc1N1CCN(C(=O)CSc2nc3ccccc3[nH]2)CC1 | -47 | 65 | -1.7 | -1 | 87 | i | 0.92
COC(=O)c1cc(OC)c(OC)cc1NC(=S)Nc1cc(Cl)ccc1OC | 19 | 152 | -0.4 | 3 | 103 | i | 0.99

# (list continues)
SMILES,Insulin prom inh,Insulin prom inh cell count,GALR2 ag,PKD1 inh,RGS16-Gao,HSV augment,HSV augment primary fold
CC(=O)c1cccc(NC(=O)c2ccco2)c1,29,124,-0.3,2,108,i,0.97
O=[N+]([O-])c1ccc(NC(=S)N2CCOCC2)cc1,54,91,-1.0,5,112,i,0.99
CCOC(=O)c1c(C)[nH]c(C(=O)N2CCN(c3ccc(OC)cc3)CC2)c1C,nt,nt,nt,3,98,i,1
CC(c1ccc(F)cc1)n1c(Cn2ncc3ccccc3c2=O)n[nH]c1=S (stereo not given),4,105,nt,-7,107,i,1.1
Cc1ccc(C)c(-n2cc(CNCCCn3cccn3)c(-c3ccccc3)n2)c1,nt,nt,nt,-1,119,i,0.96
Cc1sc(NC(=O)c2ccccc2F)c(CN2CCCCC2)c1C,-485,72,0.0,-6,108,i,0.97
c1ccc(-c2nnc(CN3CCN(C(c4ccccc4)c4ccccc4)CC3)o2)cc1,nt,nt,nt,-6,97,i,0.94
Cc1nn(C)c(C)c1/C=C/C(=O)c1cccs1,56,141,-2.3,-2,118,i,1.1
Cc1ccsc1C1Nc2ccccc2-c2nc3ccccc3n21 (stereo not given),3,148,0.6,-2,105,i,0.95
N/C(=N\OC(=O)Nc1cccc(C(F)(F)F)c1)c1ccno1,nt,nt,nt,nt,101,i,1.1
O=C(O)/C=C\c1cccc(-n2cnnn2)c1,nt,nt,0.3,-6,102,i,0.93
O=C(N/N=C\c1cccs1)c1ccccc1-n1cccc1,27,83,nt,-1,81,i,0.9
COc1ccc(OC)c(NC(=O)CNC(=O)c2cccs2)c1,-46,38,-0.7,2,94,i,0.91
O=C1C2ON(c3ccccc3)C(c3ccccc3F)C2C(=O)N1c1ccccc1 (stereo not given),nt,nt,-1.3,15,101,i,0.85
c1ccc2c(c1)[nH]c1nc(SCCN3CCOCC3)nnc12,0,151,-1.8,-9,162,i,0.87
Cn1c(=O)c(=O)n(C)c2cc([N+](=O)[O-])c([N+](=O)[O-])cc21,nt,nt,nt,4,96,i,0.92
CCOC(=O)Cc1csc(NC(=O)CSc2nnc(-c3ccc(OC)cc3)n2C)n1,nt,nt,-3.7,-8,97,i,0.85
Cc1nnc(SC(C)C(=O)Nc2ccc(Cl)cn2)n1Cc1ccccc1 (stereo not given),-12,112,-0.6,-6,96,i,0.85
CC(=O)Nc1ccc(-c2nc3c(C)cccc3[nH]2)cc1,41,164,-1.6,-5,99,i,0.92
COC(=O)c1cc(OC)c(OC)cc1NC(=S)Nc1cccc(Cl)c1,18,120,-2.0,10,89,i,1.1
O=c1cc(N2CCN(c3ccccc3)CC2)[nH]c(=O)n1Cc1ccc(F)cc1,nt,nt,0.6,2,107,i,1
O=c1c(Cl)c(NCCCO)cnn1-c1nc2ccccc2[nH]1,37,12,-2.6,0,97,i,0.63
C/C(=N\Nc1nc2ccccc2s1)c1ccc(Br)s1,nt,nt,nt,-3,94,i,0.89
N/C(=N\OS(=O)(=O)c1ccc(Br)cc1)c1ccncc1,-3,90,-0.1,5,95,i,1
CCCC(C)NC(=O)c1cc(Cl)ccc1OC (stereo not given),50,149,-0.3,3,82,i,0.91

# Next section
SMILES,Insulin prom inh,Insulin prom inh cell count,GALR2 ag,PKD1 inh,RGS16-Gao,HSV augment,HSV augment primary fold
O=C(N/N=C/c1ccncc1)C1CC1(c1ccccc1)c1ccccc1 (stereo not given),nt,nt,nt,nt,97,i,0.98
CC1=CC(C)(C)Nc2ccc(OC(=O)C(C)N3C(=O)c4ccccc4C3=O)cc21 (stereo not given),16,42,0.0,0,101,i,1.1
COc1ccc(N2CCN(C3CC(=O)NC3=O)CC2)cc1 (stereo not given),nt,nt,-2.3,-2,105,i,0.86
COC(=O)c1cc(NC(=O)c2cccnc2)ccc1N1CCOCC1,nt,nt,nt,2,104,i,0.94
Cc1cccc(NC(=S)NCC(c2cccnc2)N(C)C)c1 (stereo not given),nt,nt,0.1,7,102,i,1.1
O=S(=O)(c1ccccc1F)N1CCN(CC(O)c2ccccc2)CC1 (stereo not given),nt,nt,nt,5,101,i,0.99
O=C(NCC1CCCO1)c1cc2ccccc2oc1=O (stereo not given),nt,nt,nt,-4,98,i,1
O=Cc1cc2cc3c(cc2nc1Cl)OCCO3,nt,nt,nt,nt,103,i,0.93
O=C(CC(C(=O)O)C1CCCO1)NCc1ccccc1 (stereo not given),nt,nt,-1.1,-14,-522,i,0.94
CCCCC(=O)Nc1ccc(C(=O)NNC(=S)NC(=O)c2ccco2)cc1,nt,nt,nt,-6,88,i,0.97
O=C(O)C1CN(c2nc(Cl)ccc2[N+](=O)[O-])C1,0,104,nt,5,98,i,0.91
Cc1cc(C)n(-c2cc(C)c(C)cc2Br)n1,-132,132,-1.8,7,80,i,1
O=C(NCCc1ccccn1)C1CCCN(S(=O)(=O)Cc2ccccc2)C1 (stereo not given),-7,135,0.1,1,98,i,1
CCOC(=O)Cc1nnc(NC(=O)CSc2ccccc2)s1,42,130,-2.0,1,88,i,1
COc1ccc(NS(=O)(=O)c2ccc(NC(=O)c3ccc(N(C)S(C)(=O)=O)cc3)cc2)c(OC)c1,21,84,-0.4,-12,110,i,0.82

# Rows were taken by chance; 1.3% or so of the library scored in one or more.
